Sfp PPTase inh: qHTS Assay for Inhibitors of Bacillus subtilis Sfp phosphopantetheinyl transferase (PPTase); 4'-phosphopantetheinyl transferase ffp (Bacillus subtilis), Q9F4F7; Biochemical Sfp PPTase activity, qHTS; Potency, µM, without a hit: max response, negative = inhibition, actives largely listed as inhibitors; 310,000 tested, 3.5% active; active = well fitted inhibition curve with a large enough effect; inconclusive = small, poorly fitted or top-dose-only effect, or another doubt; inactive = no such curve, though single readings can be large or run the other way;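 also: the enzyme is Sfp with the accession as filed and its product quenches rhodamine fluorescence; potency is read from the fitted curve at half-maximal effect; 0% = enzyme reaction without inhibitor and -100% = no enzyme wells; top concentration of the series not given in the record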
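Fluorescence-quenching assay: 15 nM Sfp-PPTase preincubated 15 min at room temperature with compound, then 5 uM rhodamine-CoA and 12.5 uM BHQ-2-labelled YbbR peptide added. Fluorescence (ex 525/em 598 nm) read at start and after 30 min; difference gives rate.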
ClpP mod: qHTS Assay for Activators of ClpP | purified B. subtilis ClpP, FRET peptide cleavage, 20 min | Potency, µM (series often up to 57.5 µM), for the others: at the top dose activity change, negative = active | 340,000 tested, 1.9% active; active = well fitted falling curve with a large enough effect; inconclusive = small, poorly fitted or top-dose-only effect; inactive = no such curve, though single readings can be large or run the other way; also: potency is read from the fitted curve at half-maximal effect; the source files actives as falling curves though it sought activators and does not explain the sign; nearly all actives have a fitted effect of over 65% in size; many hits overshoot -100%
Target sequence (P80244 whole entry, looked up): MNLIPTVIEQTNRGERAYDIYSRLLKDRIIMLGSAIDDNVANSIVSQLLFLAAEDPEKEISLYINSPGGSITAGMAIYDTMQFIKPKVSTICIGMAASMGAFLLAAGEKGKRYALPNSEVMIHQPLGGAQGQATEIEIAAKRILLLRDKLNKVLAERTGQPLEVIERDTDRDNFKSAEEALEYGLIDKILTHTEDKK
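FRET quenching reversal measured ClpP activation: 10 microg/mL B. subtilis ClpP at pH 8 with the FRET-FV decapeptide, read at 430 nm after 320 nm excitation. The 20-min minus 0-min signal was scaled between DMSO/no-enzyme wells and ADEP (5.8 microM final).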
gsp ag: qHTS for Agonist of gsp, the Etiologic Mutation Responsible for Fibrous Dysplasia/McCune-Albright Syndrome: qHTS. gsp mutant cells, cAMP HTRF, 30 min; control for the full effect not named in the record. Potency, µM (doses to about 76.9 µM), for the others: at the highest dose activation (cAMP increase), usual class: activators. 340,000 tested, 0.13% active; active = well fitted activation curve with a large enough effect; inconclusive = small, poorly fitted or top-dose-only effect, or another doubt; inactive = no such curve, though single readings can be large or run the other way; cell line not stated here;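 also: phosphodiesterase inhibitor Ro 20-1724 added with compounds to block cAMP breakdown; potency is read from the fitted curve at half-maximal effect; nearly all actives have a fitted effect of over 60% in size; about a fifth of the inactives were tested at one dose only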
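Cells in DMEM/10% FBS with G418 were pretreated with compounds in DMSO plus […] (300 uM stock) for 30 min at 37C. cAMP was measured by HTRF (cAMP-d2 plus anti-cAMP antibody-K) after 30 min at room temperature.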
gsp antagonist: qHTS for Antagonists of gsp, the Etiologic Mutation Responsible for Fibrous Dysplasia/McCune-Albright Syndrome: qHTS. gsp-mutant cells, cAMP HTRF, 30 min; control for the full effect not named in the record. Potency, µM (titrated, usually from 76.9 µM), without a hit: at the highest dose activity change, negative = inhibition, most hits filed as inhibitors. 340,000 tested, 0.4% active; active = falling curve of any shape with a large fitted effect; inconclusive = falling curve, mostly with a smaller effect; inactive = flat or rising curve; cell line not stated here;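 also: intracellular cAMP measured with PDE inhibitor Ro 20-1724 present during compound exposure; potency is read from the fitted curve at half-maximal effect; % is scaled to controls: 0 for no effect and ±100 for the full control effect; nearly all actives have a fitted effect of over 65% in size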
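G418-selected cells were plated in DMEM/10% FBS for 16-24 h at 37C, then treated with compounds plus the PDE inhibitor […] (300 uM solution added) for 30 min at 37C. Intracellular cAMP was measured by HTRF after 30 min lysis at room temperature.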
TRPV1 PAM: HTS Assay for Compounds that Act as Potentiators of the Vanilloid Receptor 1; Transient receptor potential cation channel subfamily V member 1 (Homo sapiens), Q8NER1; potentiation, % at 8.33 µM; 320,000 tested, 0.02% active; TRPV1-expressing cells, Fluo-8 calcium influx, capsaicin EC20 potentiation; host cell line not named in the record; control for the full effect not named in the record; active means potentiation above 80%; inconclusive means 30% to 80%; inactive means below 30%; also: 0% is about no effect
Target sequence (Q8NER1 whole entry, looked up): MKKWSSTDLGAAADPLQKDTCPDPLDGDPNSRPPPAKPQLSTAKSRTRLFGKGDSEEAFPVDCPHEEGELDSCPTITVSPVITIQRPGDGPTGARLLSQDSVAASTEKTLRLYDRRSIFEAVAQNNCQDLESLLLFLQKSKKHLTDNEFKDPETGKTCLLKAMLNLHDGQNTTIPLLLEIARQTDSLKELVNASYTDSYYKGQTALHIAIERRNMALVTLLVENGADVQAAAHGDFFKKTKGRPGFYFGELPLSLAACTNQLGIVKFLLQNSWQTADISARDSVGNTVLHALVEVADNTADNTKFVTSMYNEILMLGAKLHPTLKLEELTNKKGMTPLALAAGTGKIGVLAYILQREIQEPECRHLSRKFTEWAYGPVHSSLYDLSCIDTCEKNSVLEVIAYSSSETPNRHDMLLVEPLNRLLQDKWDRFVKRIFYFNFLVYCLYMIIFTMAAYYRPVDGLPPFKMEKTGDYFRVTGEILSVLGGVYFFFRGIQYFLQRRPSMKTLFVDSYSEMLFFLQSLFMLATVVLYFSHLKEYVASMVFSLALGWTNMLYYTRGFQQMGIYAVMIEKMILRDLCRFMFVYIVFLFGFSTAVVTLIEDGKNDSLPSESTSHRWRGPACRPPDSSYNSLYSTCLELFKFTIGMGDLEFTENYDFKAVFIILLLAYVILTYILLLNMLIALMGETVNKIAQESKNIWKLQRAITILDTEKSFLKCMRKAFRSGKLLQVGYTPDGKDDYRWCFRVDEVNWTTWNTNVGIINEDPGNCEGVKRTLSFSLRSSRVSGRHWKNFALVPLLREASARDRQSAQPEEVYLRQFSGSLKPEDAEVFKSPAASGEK
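Fluo-8 calcium influx in TRPV1-expressing cells, kinetic read (ex 480/em 520 nm). Compound added and read 3 min for agonist activity, followed by capsaicin at EC20 final and 2 min further read for enhancement.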
Menin MLL FP FL: qHTS Assay for Inhibitors Targeting the Menin-MLL Interaction in MLL Related Leukemias: Competition With Fluorescein Labeled MLL-derived Peptide; 290,000 tested, under 10 active; FP activity change, % at 61.4 µM; Fluorescence polarization, fluorescein-MLL peptide displacement from menin; inconclusive = falling polarisation curve, or a change in total fluorescence; inactive = total fluorescence flat and polarisation flat or rising; no compound was filed as active; the % refers to the polarisation; negative = inhibition;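 also: % of control where 0% means no effect; inhibitors lower the polarisation; unlabelled MLL peptide was the positive control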
CtBP-E1A blk: qHTS Assay for Inhibitors of the CtBP/E1A Interaction | AlphaScreen GST-E1A/His-CtBP binding, 1536-well; active compounds read low; control for the full effect not named in the record | activity change, % (test concentration not listed) | 340,000 tested, 0.49% active; in the data active means activity change below about -65%; inconclusive means about -30% to -65%; inactive means above about -30%; also: % is scaled to controls: 0 for no effect and ±100 for the full control effect
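GST-E1A and His-tagged CtBP (125 nM each as 5X stock) were preincubated with pin-transferred compound for 2 h at 37 °C in the dark, then glutathione donor and nickel acceptor beads were added for 1 h before AlphaScreen reading.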
* = called active by the depositor; ? = inconclusive; . = no result given; [ ] = dose if it differs, or a comment. Rows were taken by chance. About 5.3% of those tested had a hit in this group.

SMILES	Sfp PPTase inh	ClpP mod	gsp ag	gsp antagonist	TRPV1 PAM	Menin MLL FP FL	CtBP-E1A blk
O=C(c1cccc(F)c1)N1CCC(N2CCCCCC2)CC1	0%	-1.8%	-3%	-8%	15	0.2	4
COc1ccc(OCC(=O)Nc2ccc(NC(=O)c3ccco3)cc2)cc1	10%	-4.5%	-34%[inhibitor]	-10%	3	5.2	-6
C/C(=N\NC(=O)c1nnn(-c2nonc2N)c1CN(C)c1ccccc1)c1cccnc1	-6%	0.7%	-5%	-1%	1	-0.2	.
CCOc1ccccc1N1CN(CC)CNC1=S	7%	-1.8%	-2%	5%	-12	1.1	-1
COc1ccc(CN(C(=O)Cc2c[nH]c3ccccc23)C(C(=O)NC2CCCCC2)c2ccc(C)o2)cc1 (configuration not stated)	15%	-1.9%	1%	-7%	16	6.3	-18
CCCC/C(O)=C1\C(=O)CC(C)(C)CC1=NCCCCCC(=O)O	5%	.	7%[15.4 µM]	.	10	3.5	7
Cc1ccc(C(=O)Nc2ccc(C(=O)NCC3CCCO3)cc2)cc1 (configuration not stated)	8%	-3.2%	-32%[inhibitor]	-6%	-10	-4.8	.
Cc1c(Cl)cccc1NC(=O)CC1Oc2ccccc2NC1=O (configuration not stated)	-31%	-1.7%	?	10%	-6	4.8	9
O=C(O)CNC(=O)/C(=C\c1ccco1)NC(=O)c1ccco1	?	-5.2%	-36%[inhibitor]	3%	8	-4.2	.
Cc1cc2ccccc2n1CCNC(=O)C1CCCC1	14%	-3.1%	-5%	0%	0	-19	3
O=C(CN(C(=O)CNC(=O)c1cccs1)c1cccc(F)c1)NC1CCCCC1	6%	-3.1%	17%[15.4 µM]	9%	?	-3.0	2
O=C(NCCS(=O)(=O)N1CCN(c2ccccc2)CC1)C1CCCCC1	.	-6.1%	-17%	.	.	.	1
O=C(COC(=O)C1CCN(c2ccc(C(F)(F)F)cn2)CC1)Nc1ncc(Cl)cc1Cl	.	?	-43%[inhibitor]	8%	-1	.	-9
CCOC(=O)C1=C(C)OC(N)=C(C#N)C1c1ccc(C)o1 (configuration not stated)	11%	1.5%	-39%[inhibitor]	-11%	-13	1.2	53
Cc1cc2cc(CNC(=O)Nc3ccccc3)ccc2[nH]1	0%	-0.1%	-54%[inhibitor]	5%	0	-4.7	.
CC(=O)Nc1ccc(N2C(=O)CCC2=O)cc1C	12%	-0.5%	-14%	15%	1	1.6	2
Cc1ccc(C)c(OCC(=O)N(Cc2nnc(-c3ccccc3Cl)o2)C2CC2)c1	.	3.5%	13%	-9%	-27	.	-2
Cc1c(C(C)(C)O)[nH]c2ccc(C#N)cc12	-1%	-8.2%	.	10%	4	1.6	-16
CSc1ccccc1NC(=O)c1cc(-c2cccnc2)nc2ccc(Br)cc12	45µM*	0.1%	17%[15.4 µM]	-3%	17	-3.2	5
CC1CCN(C(=O)CCc2nnc3ccc(NCc4ccco4)nn23)CC1	8%	-0.3%	?	1%	4	7.6	7
Cc1ccc(/C=N/NC(=O)CSc2nc3ccccc3n2Cc2ccc(Cl)cc2)o1	-16%	-0.2%	0%	-21%	7	4.6	-12
Cc1cc(C(=O)NCC(=O)OCC(=O)NCC2CCCO2)ccc1[N+](=O)[O-] (configuration not stated)	.	-1.7%	17%	6%	6	.	-23
O=C(COc1cc(F)ccc1[N+](=O)[O-])Nc1cc(S(=O)(=O)N2CCCC2)ccc1Cl	.	-8.3%	-5%	?	?	.	-8
CCCNC(=O)c1ccc2c(=O)c(O)c(-c3ccc(OC)cc3)[nH]c2c1	19%	-11%	?	13%	9	2.7	-1
N=c1n(N)c2ccccc2n1CC(=O)c1ccc(Br)cc1	5%	-1.4%	-39%[15.4 µM]	6%	3	1.6	1
Further records:
SMILES	Sfp PPTase inh	ClpP mod	gsp ag	gsp antagonist	TRPV1 PAM	Menin MLL FP FL	CtBP-E1A blk
O=C(Cn1nnc(-c2ccccc2F)n1)OCC(=O)c1ccccc1	-29%	.	13%[15.4 µM]	2%	-8	10	7
N=c1n(CCN2CCOCC2)c2ccccc2n1CC(O)COc1ccccc1 (configuration not stated)	12%	-1.1%	-113%	4%	4	2.4	5
COc1ccc(S(=O)(=O)N2C(=O)/C(=C3\SC(N)=NC3=O)c3ccccc32)cc1	9%	.	6%[15.4 µM]	?	-1	0.0	-11
NC(=O)CSc1nc2ccccc2n1Cc1ccccc1F	-15%	-0.8%	-28%	0%	-2	0.6	5
CSc1cccc(NC(=O)CNS(=O)(=O)c2ccccc2)c1	4%	-1.0%	6%	-2%	1	-3.2	1
COc1ccc(CNC(=O)COc2ccc(C(=O)c3ccc(F)cc3)cc2)cc1	5%	-1.5%	-2%[15.4 µM]	17%	5	2.8	-8
Cc1cccc(C)c1OC(=O)CN1C(=O)c2ccccc2C1=O	18%	.	?	-10%	0	4.2	8
CC1CCCN(CC(O)COc2ccc(S(=O)(=O)N3CCCC3)cc2[N+](=O)[O-])C1 (configuration not stated)	.	-3.1%	-22%	5%	?	.	-11
CS(=O)(=O)Nc1ccccc1C(=O)OCC(=O)NC1CC1	.	-6.1%	-9%	1%	-5	.	0
CCN1/C(=C\c2ccc3cc(C)ccc3[n+]2CC)Sc2cc(C)c(C)cc21	18µM*	1.7%	?	?	12	?	-8
COc1cc(OC)c(CN2CCN(c3ccc(F)cc3)CC2)cc1Br	?	-1.0%	-2%	1%	16	-0.5	-23
O=C(NCc1ccco1)c1cc2c(s1)CCCCC2	3.5µM*	0.1%	-16%	7%	6	4.8	-2
CCOc1ccc(S(=O)(=O)Nc2cccc(C)c2)c2cccnc12	18%	0.6%	-25%	4%	4	-0.8	-2
Cn1nc(NC(=O)C(F)(F)F)c2nccnc21	.	-1.4%	-31%[inhibitor]	.	.	.	-10
O=C(CSc1nnc(-c2ccco2)n1Cc1ccco1)Nc1ccccc1	13%	0.8%	1%	-5%	2	-1.2	-7
COc1cc(C2NC(=O)NC(C)=C2C(=O)OCC2CCCCC2)ccc1O (configuration not stated)	-8%	0.0%	1%	1%	-11	-2.8	.
O=C(CSc1nncs1)Nc1ccc(S(=O)(=O)N2CCCC2)cc1	14%	.	10%	0%	5	-3.7	-1
CCOC(=O)Cc1nnc(NC(=O)COc2ccc(OC)cc2)s1	-6%	-3.0%	13%	-4%	-7	-0.5	-6
Cc1nc2ccccc2n1CCC(=O)Nc1cccc(F)c1	16%	-1.0%	-49%[inhibitor]	2%	-16	2.7	4
O=C(NC(NCc1cccnc1)C(Cl)(Cl)Cl)c1cccc2ccccc12 (configuration not stated)	2%	-8.2%	-6%	-23%	-12	0.9	2
C#CCOCCOCCOCCNc1nc(N2CCN(C(=O)CCCCCCCCCCNC(=O)Cn3cc(CCCCCN)nn3)CC2)nc(N2CCN(C(=O)CCCCCCCCCCNC(=O)[C@H](CO)n3cc(CCCSC)nn3)CC2)n1	.	1.5%	.	3%	-2	.	-5
Cc1cccc(C(=O)Nc2ccc3c(c2)C(=O)N(CC(C)C)C3=O)c1	3%	4.1%	?	6%	-4	3.9	.
Cc1occc1-c1nnc(SCC(=O)NC2CC2)n1C(C)C	7%	-2.2%	-2%	10%	-15	-0.9	-9
Cc1c2c(nc3nnnn13)CCCC2	18%	.	15%[15.4 µM]	-1%	-3	3.1	3
Cc1cc(C(=O)NNC(=O)c2cccc(C(F)(F)F)c2)no1	8%	0.5%	0%	2%	25	2.2	.

An excerpt from above in order of the gsp ag value, falling.
structure	gsp ag
O=C(CSc1nncs1)Nc1ccc(S(=O)(=O)N2CCCC2)cc1	10%
O=C(NCc1ccco1)c1cc2c(s1)CCCCC2	-16%
N=c1n(CCN2CCOCC2)c2ccccc2n1CC(O)COc1ccccc1 (configuration not stated)	-113%

Next part
SMILES	Sfp PPTase inh	ClpP mod	gsp ag	gsp antagonist	TRPV1 PAM	Menin MLL FP FL	CtBP-E1A blk
O=C1Nc2ccc(S(=O)(=O)N3CCCC3)c3cccc1c23	6%	-24%	15%	5%	8	-1.4	12
O=C(CN1C(=O)NC2(CCCCC2)C1=O)Nc1ccc(Cl)c(S(=O)(=O)N2CCOCC2)c1	.	-3.5%	30%	10%	-7	.	-24
CCSc1nnc(NC(=O)CSc2nnc(-c3c[nH]c4ccccc34)n2C)s1	6%	-2.3%	?	4%	2	-7.3	-10
COCCNC(=S)NN=C1CCCCC1	40µM*	?	13%[15.4 µM]	3%	5	-5.6	6
C/C(=N\OCc1ccccc1)c1c(O)cc(C(C)C)n(-c2ccccc2)c1=O	2%	-3.0%	-63%[inhibitor]	-23%	-4	2.3	4
O=C(Nc1nccs1)c1cccc(NC(=O)c2ccco2)c1	-4%	2.1%	9%	-10%	22	0.4	-12
CSCCC(NC(=O)c1cc(S(=O)(=O)N2CCOCC2)ccc1F)c1nc2ccccc2[nH]1 (configuration not stated)	.	-2.1%	-16%	-1%	7	.	-1
CCCCCN(C(=O)CCC(=O)OCc1cccc(C(F)(F)F)c1)c1c(N)n(CCCC)c(=O)[nH]c1=O	9%	-2.3%	-6%[15.4 µM]	0%	-1	.	-15
C=C(C)CSCc1nc2ccccc2[nH]1	0%	-3.8%	-15%	-1%	?	-0.1	-9
COc1ccccc1-n1cnnc1SCC(=O)Nc1cc(C(C)(C)C)nn1-c1ccccc1	10%	0.2%	-21%	-8%	-2	5.7	0
Cc1cccc(CS(=O)(=O)c2ncc(Cl)c(C(=O)NCc3ccc4c(c3)OCO4)n2)c1	-11%	3.6%	0%	-2%	15	2.8	.
Cc1ncc(CCl)c2c1OC(C)(C)OC2	45µM*	?	-7%	-13%	18	-8.5	7
COc1ccc(OCc2cc(C(=O)N3CCCC(CO)C3)no2)c2ccccc12 (configuration not stated)	-1%	-12%	-1%	-8%	-2	.	-7
Cc1cccc(NC(=O)c2ccc3c(=O)n(CC4CCCO4)c(=S)[nH]c3c2)c1 (configuration not stated)	11%	.	18%[15.4 µM]	?	-22	-3.3	-13

Compound activity: PubChem, National Center for Advancing Translational Sciences (NCATS)
